NPYLR7 agonist: mosquito NPYLR7 agonism. HEK293T NPYLR7/Galpha15, GCaMP6s calcium fluorescence. activation, % at 10 µM. 0.15% of 270,000 active; in the data active means activation above about 40%;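 further: 0% = vehicle and 100% = reference agonist at the receptor; some compounds past the cut are filed as inactive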
NPYLR7 agonist max-min: second read-out of NPYLR7 agonist, no call of its own (marks repeat the call); activation, %; measured here: Max-Min RFU normalised activation; some inactives read as strong as hits;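 span of the calcium signal over five minutes; 0% = vehicle and 100% = native peptide agonist; compound fluorescence can raise it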
Active calls of the source: *.

Start of the data: the first 2 records, to show the layout:
Every second line gives: NPYLR7 agonist	NPYLR7 agonist max-min
CCc1nc(C)c(C(=O)NC(C)C(=O)Nc2ccc(F)cc2C)o1 (centres undefined)
  -1	-1
N#CCCCN1CCN(C(=O)c2ccc(-c3n[nH]c4c3COc3ccccc3-4)cc2)CC1
  -2	1

The whole of this part (from the top)
Every second line gives: NPYLR7 agonist	NPYLR7 agonist max-min
CCc1nc(C)c(C(=O)NC(C)C(=O)Nc2ccc(F)cc2C)o1 (centres undefined)
  -1	-1
N#CCCCN1CCN(C(=O)c2ccc(-c3n[nH]c4c3COc3ccccc3-4)cc2)CC1
  -2	1
COCCCn1c(=S)[nH]c2sc3c(c2c1=O)CCC3
  0	-2
CC(=O)c1ccc(C(=O)N(CCN(C)C)c2nc3cc(C)cc(C)c3s2)cc1
  -5	-12
N=c1c2c(-c3ccccc3)c(-c3ccccc3)oc2ncn1CCN1CCOCC1
  -12	-18
COc1ccc(NC(=O)CSc2ncnc3sc(C)cc23)cc1
  -1	-5
Cn1cc(C(=O)O)c2[nH]c(=O)n(-c3ccc(F)cc3)c(=O)c21
  -3	-4
Cc1cc(C(=O)N2CCN(c3ncccc3NC(=O)c3ccc4c(c3)OCO4)CC2)no1
  35	33
CCOC(=O)c1cc(-c2ccc(N3CCN(C(=O)c4cccnc4SC)CC3)cc2)n(-c2ccc(F)cc2)n1
  26	13
C=CCOCC(O)CN(CC=C)Cc1nc2scc(-c3ccccc3C)c2c(=O)[nH]1 (centres undefined)
  -3	1
CC(C)CCCC(C)N (centres undefined)
  -3	-9
CCOC(=O)c1nn(-c2ccc(C)cc2)c(=O)cc1OCC(=O)Nc1cc(C)ccc1C
  12	6
Cc1ccc(S(=O)(=O)CCC(=O)OCc2ccc(S(=O)(=O)C(C)C)cc2)cc1
  4	2
COC(=O)CCc1c(C)nn(-c2ccc(C(=O)NC3CCC(C(C)(C)C)CC3)cc2)c1C (centres undefined)
  0	-8
CCOC(=O)c1cc(-c2ccc(N3CCN(C(=O)c4cccnc4SC)CC3)cc2)n(-c2ccccc2C)n1
  3	0
N#Cc1ccccc1-c1ccc(Cn2cc(C(F)(F)F)cc(Cl)c2=O)cc1
  14	8
CC(c1ccncn1)N(C)Cc1cn(C)nc1-c1ccc(C2CCCCC2)cc1 (centres undefined)
  13	-1
CCC(C)NCc1ccccc1C (centres undefined)
  1	3
O=C(Cc1csc(-c2cccc(F)c2)n1)N1CC[C@@H](O)C1
  11	8
CCn1nnc2c(=O)oc3ccccc3c21
  18	8
CN(C)Cc1c(O)ccc2c1CCCC2
  7	5
COCC(=O)N1CCCN(Cc2ccc(C(=O)Nc3cnn(C)c3)cc2)CC1
  -2	-3
COC(=O)c1ccc(Nc2nnc(-c3ccc(C)c(S(=O)(=O)NCCO)c3)c3ccccc23)cc1
  -18	-23
COc1ccc(S(=O)(=O)N2CCN(c3cccc(C)c3C)CC2)cc1OC
  -2	2
COc1cc2c(cc1OC)CN(C(=S)NCCCN1CCOCC1)CC2
  10	7
O=C(O)c1cc(Br)ccc1NS(=O)(=O)c1ccccc1
  -1	-3
COc1cc(S(=O)(=O)n2cccn2)c(OC)cc1Br
  -1	13
CSc1nn(CC(=O)Nc2ccc(C)c(Cl)c2)c(N)c1-c1nc(-c2ccc3c(c2)OCO3)no1
  13	5
COc1ccccc1CCN1CCC(CN(C)C(=O)CN2CCCC2=O)CC1
  17	3
O[C@H]1C[C@@H]2CN(Cc3cccc(OCc4ccccn4)c3)C[C@@H]2C[C@@H]1O
  0	0
CC(C)S(=O)(=O)Oc1ccc(CN(C(=O)c2cccc(F)c2)C2CC2)cc1
  24	28
CC(=O)C(C(=O)N(C)C)n1cnc2c(nnn2-c2ccc(Cl)cc2)c1=O (centres undefined)
  -2	-2
CCOC(=O)CCC(=O)Nc1cc(C(C)(C)C)nn1-c1cc(Cl)ccc1Cl
  20	23
COC(=O)CCc1c(C)nn(-c2ccc(C(=O)Nc3cccc(SC)c3)cc2)c1C
  19	7
CC1CCN(CC(=O)NCc2ccco2)c2cc(Cl)ccc2S1 (centres undefined)
  -4	-6
CC1=NC(C)=C(C#N)C(c2cc(Cl)ccc2OC(F)F)C1C#N (centres undefined)
  3	-5
O=C(Cn1cnc2c(sc3ccccc32)c1=O)Nc1ccc(F)cc1F
  10	5
O=C(CN(Cc1ccccc1)C(=O)/C=C/c1ccccc1)Nc1cc(-c2ccccc2)nn1-c1ccc(F)cc1
  -2	4
CC(C)CCn1c(CN2[C@@H]3CC[C@H]2CNC(=O)C3)nc2ccccc21
  2	0
Cc1ccccc1OCC(=O)NNC(=O)CN1C(=O)c2ccccc2C1=O
  -4	-11
CC(C)(C)NCC(O)COc1cccc2c1CCCC2=O (centres undefined)
  -10	-13
Cc1cccc(N2CC(C(=O)N3CCCC3c3nnc4n3CCCCC4)CC2=O)c1C (centres undefined)
  8	7
O=[N+]([O-])c1ccc(-c2nc(C=Nc3ccc(F)cc3)c(O)o2)cc1
  -4	-9
O=C(CCCl)Nc1ccc(Cl)cc1F
  4	6
CCO[C@H]1[C@H](NC(=O)c2cccnc2)c2ccccc2C12CCN(C(=O)c1ccc(C)cc1C)CC2
  4	2
CCOC(=O)CNC(=O)N(Cc1c(C)nn(-c2cccc(F)c2)c1N1CCN(CC)CC1)C(C)C
  19	27
Cc1cc(CC(C)NC(=O)c2ccc3c(c2)OCO3)n[nH]1 (centres undefined)
  1	-1
O=C(COc1ccccc1)N1CCN(c2nc(Cc3ccccc3)nc3c2cnn3-c2ccccc2)CC1
  7	6
O=C(Cc1ccccc1)Nc1ccc(-c2ccc3nncn3n2)cc1
  -10	-1
CCC(CC)NC(=O)c1cc(=O)[nH]c2ccc(S(=O)(=O)N3CCOCC3)cc12
  5	5
C#CCOCC(O)CN(CCc1nc(-c2cccc(C(F)(F)F)c2)no1)Cc1ccco1 (centres undefined)
  3	3
O=C(Cc1cccs1)N1CC(=O)N(Cc2ccc(Cl)cc2)CC(O)C1 (centres undefined)
  24	21
CCOC(=O)c1sc(NC(=O)CCN2C(=O)c3cccc([N+](=O)[O-])c3C2=O)c(C(=O)OCC)c1C
  -2	7
Cn1nnnc1Sc1ncccc1Cl
  3	-2
CC(C)NC(=O)C(=O)N1CCn2nc(C(=O)N3CCN(C)CC3)cc2C1
  -7	-10
COc1ccc(Cl)c(S(=O)(=O)NC(C)c2nc(C)cs2)c1 (centres undefined)
  -7	-7
O=C(NCc1cccc(C(F)(F)F)c1)c1csc(CSc2nnc(-c3ccccc3Cl)n2-c2ccccc2Cl)n1
  -11	-16
Cc1cccc(NC(=O)CC2CSc3nc(C)cc(=O)n32)n1 (centres undefined)
  0	0
CC(C)CSc1nnc(SCC(=O)NCc2ccccc2)s1
  0	7
CC(C)(C)SCC(=O)NC1CCN(CC(N)=O)CC1
  1	3

More compounds follow.
Every second line gives: NPYLR7 agonist	NPYLR7 agonist max-min
CCOC(=O)C1CCCN(C(=O)c2ccc(CSc3nc(Cl)cc(N4CCOCC4)n3)cc2)C1 (centres undefined)
  -4	-3
CCn1nccc1C(=O)Nc1ccc2nc(N3CCN(C)CC3)sc2c1
  -2	-5
OCc1ccc(-c2nccn2-c2cccc3c2CCC3)o1
  -3	-7
CCNc1ncc(CN2C[C@H](N)C[C@H]2C(=O)NC)cn1
  -5	-4
COc1c2ccoc2nc2c(OC)c(O[C@@H]3O[C@H](C)[C@@H](O)[C@@H](O)[C@H]3O)ccc12
  3	1
CCOC(=O)C1(Cc2cccc(OC)c2)CCCN(Cc2ccncc2)C1 (centres undefined)
  -10	-14
COCc1cc(N(C)CCc2ccc(OC)c(OC)c2)nc(SCc2ccc(C(=O)NCCc3ccccn3)o2)n1
  12	14
CCn1cc(C(=O)N2CCN(C(=O)CCc3ccccc3)CC2)c2nn(-c3ccccc3)c(=O)c-2c1
  2	0
COCc1ccccc1NC(=O)N1CCC(Oc2c(C)cccc2C)CC1
  3	3
COC(=O)C1=NOC2C(=O)N(c3ccc(F)cc3)C(=O)C12 (centres undefined)
  11	10
CC(Nc1ccc2[nH]c(=O)[nH]c2c1)C(=O)N(C(C)C)C(C)C (centres undefined)
  2	2
O=C(COc1cccc(Cl)c1)N1CCN(c2nccc(-c3cccc(C(F)(F)F)c3)n2)CC1
  12	10
CS(=O)(=O)N1CCN(C(=O)c2csc(Nc3ccccc3)n2)CC1
  10	2
O=C(N=Nc1c(O)[nH]c2ccc(Br)cc12)c1ccccc1O
  11	10
COc1ccc(CN2CCN(c3ncccc3C(N)=O)CC2)c(OC)c1C
  5	5
CN(CC(N)=O)S(=O)(=O)c1c(Cl)ccc2c(Cl)ccnc12
  7	2
Cc1nn(-c2ccc(F)cc2)c(Cl)c1C=NNC(=O)COc1ccc(C#N)cc1
  1	0
COc1ccc(C2C3(C#N)C(N)=NC(OC)(OC)C23C#N)c(OC)c1 (centres undefined)
  3	-1
CN(C)c1nc(N)c([N+](=O)[O-])c(N2CCN(Cc3ccccc3)CC2)n1
  -2	-4
CSC(C)C(=O)Nc1cccc(-c2ccc3ccccc3c2)n1 (centres undefined)
  17	12
COc1ccc(-n2nnc3c(N4CCN(C(=O)C(C)Oc5ccccc5)CC4)ncnc32)cc1 (centres undefined)
  -12	-20
COCCn1c(-c2ccncc2)nn(CN2CCCC2c2ccc(OC)cc2OC)c1=S (centres undefined)
  4	12
O=C(Nc1nc(SCc2ccccc2)n[nH]1)c1ccccc1F
  4	2
CCOc1ccccc1C(=O)N1[C@@H](c2ccco2)[C@@H](C(=O)O)C[C@]12CCCCN(CCOC)C2=O
  3	4
Cc1cn2c3c(=O)[nH]c(=O)n(C)c3nc2n1CCN1CCC(Cc2ccccc2)CC1
  8	9
Cc1cccc(C2c3cccn3-c3ccccc3N2C(=O)CN(C(=O)c2cccc(Br)c2)C2CC2)c1 (centres undefined)
  -2	6
CCOc1ccccc1N1CCN(C(=O)c2ccc(Cl)cc2)C(C)C1=O (centres undefined)
  16	24
CCOCCOc1nc(-c2ccc(C(F)(F)F)cc2)n(-c2ccc(NC(=O)Cc3ccc(OC)cc3)cc2)n1
  -3	9
Cc1cccc(CS(=O)C(C)C(=O)Nc2ccccc2F)c1 (centres undefined)
  0	-1
CCC(C(=O)N(CCCOC)CC(=O)N1CCc2sccc2C1c1ccc(Cl)cc1)c1ccccc1 (centres undefined)
  -7	-5
CCOC(=O)C1CCN(c2ncnc3[nH]ncc23)CC1
  11	11
C=CCn1c(=O)c2c(nc3n2C(C)C(C)=NN3CCOCC)n(C)c1=O (centres undefined)
  8	11
N#Cc1c(N)n(-c2ccccc2)c2nc3ccccc3nc12
  5	9
CC(=O)c1sc2c(c1N)c(=O)[nH]c(=O)n2-c1cc(C)ccc1C
  -3	-4
O=C(CSc1nc(=O)[nH]c2c1CCC2)N1CCCCCC1
  -1	-6
C=CCCC(O)CN(Cc1ccc(F)cc1)CC1CC(c2ccc(Cl)cc2)=NO1 (centres undefined)
  -1	-1
Cc1ccc2[nH]c(C(=O)O)c(CN3CCC(n4nc(C)cc4C)C3)c2c1 (centres undefined)
  5	3
O=C(Cn1nc(-c2ccc(F)cc2)c2sc(N3CCCC3)nc2c1=O)NCCc1ccccc1
  -4	-6
O=C(O)C1CSC2c3ccccc3C(=O)N12 (centres undefined)
  10	9
CC(C)c1cc(C(C)C)n(C2CCN(C(=O)c3cccc(C#N)c3)CC2)n1
  19	18
O=c1[nH]c(=S)[nH]c2c1CCCN2
  -2	-2
CC(C)(C)c1ccc(S(=O)(=O)N(CC(=O)N(Cc2ccccc2)Cc2cccs2)C2CCCCC2)cc1
  16	23
COc1nccnc1-c1ccc(C)c2ncccc12
  -3	6
CN(C)CCN1CCC(CNCc2cn[nH]c2C(C)(C)C)CC1
  -1	-3
Cc1cccc(CO[C@]2(C(=O)NCC3CCCO3)CC(OCc3ccccc3C#N)[C@H](O)[C@H](O)C2)c1 (some centres undefined)
  2	4

Rewritten with each value named: entries from further up
> CCOC(=O)CNC(=O)N(Cc1c(C)nn(-c2cccc(F)c2)c1N1CCN(CC)CC1)C(C)C
  NPYLR7 agonist: 19	NPYLR7 agonist max-min: 27
> Cc1cc(CC(C)NC(=O)c2ccc3c(c2)OCO3)n[nH]1 (centres undefined)
  NPYLR7 agonist: 1	NPYLR7 agonist max-min: -1
> O=C(COc1ccccc1)N1CCN(c2nc(Cc3ccccc3)nc3c2cnn3-c2ccccc2)CC1
  NPYLR7 agonist: 7	NPYLR7 agonist max-min: 6
> O=C(Cc1ccccc1)Nc1ccc(-c2ccc3nncn3n2)cc1
  NPYLR7 agonist: -10	NPYLR7 agonist max-min: -1

Following part
Every second line gives: NPYLR7 agonist	NPYLR7 agonist max-min
C=CCCC(O)(CCC=C)c1ccc(CN(Cc2cccc(OC)c2OC)C2CC2)o1
  1	7
Cc1ccccc1C(=O)Nc1c(C)nc2ccc(Cl)cn2c1=O
  5	1
CCc1cc(N(C)CCc2ccc(OC)c(OC)c2)nc(SCc2ccc(C(=O)O)cc2)n1
  11	13
CCOc1ccccc1CN(CC)C(=O)c1ccc2nccn2c1
  -5	-10
NC(=O)CC1CCN(C(=O)Cc2cc(Cl)ccc2Cl)CC1
  6	6
Cc1ccccc1NC(=O)CC(NCCN(C)C)C(=O)O (centres undefined)
  1	6
COc1ccc(-c2noc(CN3CCSCC3)n2)cc1
  9	0
Cc1ccccc1N1C(=O)/C(=C/c2ccc([N+](=O)[O-])cc2)C=C1c1ccccc1
  0	9
CCN1CCN(CC(=O)N2N=C(c3ccccc3OC)CC2c2ccc(C)cc2)CC1 (centres undefined)
  -4	6
CCc1cccc2c(C(CC(=O)NCCc3ccccn3)c3cccc4c3OCO4)c[nH]c12 (centres undefined)
  0	8

Not all compounds are listed, so the mix of outcomes need not match the whole.
